Screening data as filed in PubChem.
PINK1 modulator: modulators of PINK1 expression | PINK1 immunofluorescence, high-content cytometry, 24 h | Potency, µM (top dose mostly 76.6 µM), for inactives: top-dose activation (PINK1 increase), actives largely listed as activators | 410,000 tested, 0.2% active; active = well fitted activation curve with a large enough effect; inconclusive = small, poorly fitted or top-dose-only effect; inactive = flat fitted curve, though single readings scatter; cell line not stated here;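 note: % of control where 0% means no effect; nearly all actives have a fitted effect of over 65% in size; a mitochondrial uncoupler was the plate control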
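Decision-based qHTS: stable cells, 24 h exposure to five compound concentrations, CCCP as control. Fixed cells stained for PINK1 plus nuclear, mitochondrial and cell markers, cytometer read.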
An asterisk follows results filed as active; ? = inconclusive. Potency is the fitted concentration of half-maximal effect. These rows are one share of the data, so the mix of outcomes need not match the whole.

SMILES	PINK1 modulator
CCOC(=O)N1CCN(Cc2ccc3c(c2)CN(C(=O)c2sc(C)nc2C)CCO3)CC1	0.2%
COc1ccc(C(=O)N2CCC[C@@]3(CCN(C(=O)Nc4cccc(F)c4)C3)C2)cc1	6.3%
CC(C)c1c(C(=O)N(C)CC2CCCN(C)C2)cnn1-c1nccc(-c2cccs2)n1 (stereo not given)	-0.8%
COc1ccc(-n2c(=O)c(-c3cccs3)nc3cnc(Nc4cccc(OC)c4)nc32)cc1	?
O=S(=O)(c1ccccc1)N1CCC2(CCCN(Cc3ccccc3)C2)CC1	-0.1%
OC1(c2ccc3c(c2)CN(Cc2ccccn2)CCO3)CCN(c2ccccc2F)CC1	0.5%
COc1ccccc1-c1nccc(N2CCN(C)CC2)n1	-0.5%
Cc1noc(C)c1-c1ccc2ncnc(N(C)Cc3ccco3)c2c1	0.4%
Cc1nc2cnc(N3CCN(C)CC3)nc2n(C)c1=O	0.0%
CCc1cc(C(=O)NCCN2Cc3ccccc3OC(c3ccsc3)C2)n(C)n1 (stereo not given)	1.1%
C#CCN(Cc1nc(N2CCOCC2)c2ccc(Cl)cc2n1)Cc1ccco1	-0.2%
COc1ccc(-c2nc3cc(C)ccc3cc2CN(C(=O)c2cccs2)C2CC2)cc1OC	2.7%
COCc1c(C(=O)NC2CCCC2)cnn1-c1nccc(-c2cccs2)n1	4.1%
CO[C@H]1[C@H](NC(=O)c2ccsc2)c2ccccc2C12CCN(Cc1cccn1-c1ccccn1)CC2	0.1%
COCCN1CCN(C(=O)c2cnn(-c3nccc(-c4ccccc4F)n3)c2-c2ccco2)CC1	0.1%
C[C@@H]1CN(Cc2ccc3c(c2)CN(C(=O)CN2CCOc4ccccc4C2)CCO3)C[C@H](C)O1	0.8%
N#CCCn1c(=O)c(-c2cccs2)nc2cnc(OCc3ccccc3)nc21	7.6%
NC(=O)C1CCN(c2nc(-c3cccc(N)c3)cs2)CC1	0.4%
O=C(NCC1Cc2cccc(-c3nccs3)c2O1)c1ccnc(Cl)c1 (stereo not given)	1.1%
COC(=O)[C@@H]1C[C@@H](NC(=O)c2cccc3c(C)c(C)[nH]c23)CN1Cc1cccc2ccccc12	1.4%
O=c1c(-c2cc(F)cc(F)c2)nc2cnc(Nc3ccccc3)nc2n1C[C@H]1CCCO1	0.1%
Cc1cnc(CNc2ccnc(-c3ccccc3CN(C)C)n2)cn1	0.4%
COc1cc2c3cc1Oc1cc(ccc1O)CC1c4c(cc(OC)c(O)c4Oc4ccc(cc4)CC3N(C)CC2)CC[N+]1(C)C (stereo not given)	1.4%
COc1ccccc1-n1cc(CN2CCOc3ccc(CN4C[C@@H](C)O[C@@H](C)C4)cc3C2)cn1	-0.2%
COC(=O)c1ccc(C(=O)NCC2Cc3cc(F)cc(-c4cncnc4)c3O2)cc1 (stereo not given)	0.5%
COc1cccc(Nc2ncc3nc(-c4cc(F)cc(F)c4)c(=O)n(CCC#N)c3n2)c1	0.6%
COc1ccc(OC)c(-c2ccnc(-n3ncc(C(=O)N4CCN(CCO)CC4)c3C3CC3)n2)c1	-0.5%
COCCn1c(=O)c(-c2cccs2)nc2cnc(OCc3ccccc3)nc21	2.6%
C=C1C(C2(C)C=CC(=O)C(C)(C)C2CC(=O)OC)CC[C@@]2(C)C(c3ccoc3)OC(=O)C3OC132 (stereo not given in full)	-1.3%
CCC1(C2CCN(Cc3ccccn3)CC2)NC(=O)N(CC2COc3ccccc3O2)C1=O (stereo not given)	1.6%
Cc1c(C(=O)NCCc2ccccn2)cnn1-c1nccc(-c2cccs2)n1	0.4%
CC(C)Cc1nc2cc(NS(=O)(=O)N(C)C)cc(C(=O)N3CCSCC3)c2n1C	0.7%
O=c1c(-c2ccc(F)cc2)nc2cnc(Nc3ccccc3)nc2n1Cc1cccs1	24%
COc1ccc(NC(=O)N2CC[C@@]3(CCCN(C(=O)c4cccn4C)C3)C2)cc1	0.1%
CC1CC[C@@]2(OC1)OC1CC3C4CC[C@H]5CC(O)CC[C@@]5(C)C4CC[C@]3(C)C1C2C (stereo not given in full)	-0.4%
COCCn1c(=O)c(C)nc2cnc(N3CCN(C)CC3)nc21	-0.4%
Cc1ccc(CN2CCOc3ccc(CN4CCN(CCO)CC4)cc3C2)s1	-0.1%
COC(=O)N1CCC2(CCCN(c3cccc(-c4ccccc4)c3)C2)CC1	0.5%
CC1(C)C[C@@H]2C(=O)CCC3O[C@@]3(C)CCC21 (stereo not given in full)	0.8%
Cc1ccccc1-c1ccc2ncnc(-n3ccnc3)c2c1	-1.3%
Cc1ccccc1C1(CC(=O)N2CC3CC4CC(C3)CC2C4)CC(=O)N(Cc2cccnc2)C1=O (stereo not given)	0.0%
Cc1c(C(=O)NCCc2ccncc2)cnn1-c1nccc(-c2ccccc2C(F)(F)F)n1	-0.4%
COc1ncc2nc(-c3cc(F)cc(F)c3)c(=O)n(C[C@H]3CCCO3)c2n1	0.2%
Cc1cccc(CNC(=O)c2c3n(c(C)cc2=O)-c2ccccc2SC(c2ccsc2)C3)n1 (stereo not given)	-0.4%
Cc1cccc(CNc2nc(-c3ccoc3)nc3ccccc23)c1	1.1%
CC(=O)N1CCC[C@@]2(CCN(Cc3nccs3)C2)C1	0.4%
CN(C)C(=O)c1ccc(-c2nccc(N(C)Cc3ccco3)n2)cc1	1.5%
O=C(c1cccc(F)c1)N1CCC2(CC1)CN(c1ccccc1)C2	-1.2%
CC(=O)NCCNc1ncncc1-c1ccccc1CN(C)C	-0.3%
N#Cc1cccc(-c2ccc3ncnc(NC4CCNCC4)c3c2)c1	2.2%
CCC1C(=O)NCCN1Cc1ccc2c(c1)CN(Cc1cccc(OC)c1)CCO2 (stereo not given)	-0.5%
Cc1c(C(=O)N(C)C2CCOC2)sc2ncnc(NCC3(c4ccccc4)CCOCC3)c12 (stereo not given)	0.5%
Fc1ccc(Nc2ncncc2-c2ccoc2)cc1	0.1%
COc1ccc(-n2c(=O)c(-c3cccc(Cl)c3)nc3cncnc32)cc1	4.8%
Cn1c(=O)c(-c2ccc(Cl)cc2)nc2cnc(N3CCNCC3)nc21	-0.6%
Cc1c(S(=O)(=O)O)oc2c1C(=O)C(=O)c1c-2ccc2c1CCCC2(C)C	-0.6%
CC(C)CC(N)C(=O)NC(C)C(=O)O (stereo not given)	-1.8%
O=C(CN1Cc2ccccc2OC(c2ccccc2)C1)NCc1cccnc1 (stereo not given)	-0.3%
Cn1c(=O)c(CCc2ccccc2)nc2cnc(OCc3ccccc3)nc21	0.0%
COc1cccc(CNC(=O)c2c(OC)cc(=O)n3c2CCN(C(=O)c2cc(C)ccc2C)CC3)c1	1.6%

Continued:
SMILES	PINK1 modulator
Cc1cccc(C(=O)NCC2Cc3cc(F)cc(-c4cnccn4)c3O2)n1 (stereo not given)	-0.5%
O=c1cnc2cnc(N3CCNCC3)nc2n1Cc1ccc(F)cc1	-0.8%
CC(=O)c1cccc(-c2csc(N3CCC(C(N)=O)CC3)n2)c1	0.2%
Clc1ccccc1-c1cncnc1NCCN1CCOCC1	-0.5%
Cc1nc2ccc(C(=O)NCC3CCC4(CCN(Cc5cccnc5)CC4)O3)cc2nc1C (stereo not given)	-0.2%
COc1ncc2nc(-c3cc(F)cc(F)c3)c(=O)n(CCC#N)c2n1	-0.3%
COCC(=O)N1CCC2(CCCN(c3ccncc3)C2)CC1	-0.2%
Fc1cc(F)cc(Nc2nc(Cl)nc(NC3CCCC3)n2)c1	-0.9%
N#Cc1ccc(CN2CCCC3(CCN(C(=O)c4cccc(F)c4)CC3)C2)cc1	-1.1%
Cc1cnc(CNc2cc(-c3ccc4c(c3)OCO4)ncn2)cn1	-1.5%
O=C1c2cccc(O)c2C(=O)c2c(O)cccc21	-0.4%
CCC1CN(CCNC(=O)c2ccsc2)Cc2cc(OC)ccc2O1 (stereo not given)	-0.8%
Clc1ccccc1-c1nc(Nc2ccncc2)c2ccccc2n1	6.4%
Cn1cc(-c2nc3cncnc3n(CCN)c2=O)c2ccccc21	5.9%
COc1ccccc1CNc1ncnc2ccc(-c3ccoc3)cc12	-1.2%
CN(C(=O)OC(C)(C)C)c1ccc(-c2nc3ccccc3s2)cc1	17%
COc1ccc2[nH]cc(CCNc3nc(-c4ccc(C(=O)N(C)C)cc4)nc4ccccc34)c2c1	4.5%
COc1cccc(Nc2ncc3nc(-c4ccccc4)c(=O)n(C[C@H]4CCCO4)c3n2)c1	-0.7%
COc1ccc(Oc2ncc3nc(C)c(=O)n(CCc4ccccc4)c3n2)cc1	4.4%
O=C(c1cnccn1)N1CCC2(CC1)CN(c1ccncc1)C2	1.4%
CCCS(=O)(=O)NCc1c(C)ncc2c1CCN(C(=O)/C=C/c1cccc(Cl)c1)C2	0.4%
Cc1ccc(CN2C(=O)[C@H]3Cc4c([nH]c5ccccc45)C(C)(C)N3C2=O)cc1	0.0%
COc1ccc(OC)c(-c2cc(Cl)c3c(c2)CC(CNC(=O)/C=C/c2ccccn2)O3)c1 (stereo not given)	-0.8%
COc1cc(CNCc2cc3cc(C)ccc3nc2-c2ccc(F)cc2)cc(OC)c1OC	1.6%
O=c1c(-c2cccc(Cl)c2)nc2cncnc2n1-c1ccccc1	-0.8%
c1nc(N2CCOCC2)c2cc(-c3ccoc3)ccc2n1	0.3%
CNc1ncncc1-c1ccccc1OC	0.3%
Cc1nc2cc(NC(=O)[C@@H]3C[C@@H](Sc4ccccn4)CN3Cc3ccccc3F)ccc2s1	-0.4%
COc1ccccc1-c1ccc2ncnc(NC3CCNCC3)c2c1	-0.5%
Cc1ncc2c(c1CNC(=O)c1ccc3c(c1)OCO3)CCN(C(=O)c1cc3ccccc3o1)C2	0.2%
COc1cccc(-n2c(SC)nnc2C2CCN(Cc3cccc(OC)c3O)CC2)c1	1.0%
CCc1nc2cc(C(=O)NC3CCOC(C)(C)C3)cc(NC(=O)c3ccccc3OC)c2n1C (stereo not given)	0.1%
N#CCCn1c(=O)c(-c2cccc(C#N)c2)nc2cnc(N3CCOCC3)nc21	8.1%
O=C(c1cnccn1)N1CCC2(CCCN(Cc3nccs3)C2)CC1	0.8%
CC(=O)NC(C)c1cc(Cl)c2ccccc2c1O (stereo not given)	4.2%
CCn1c(-c2cccc(OC)c2)nc2cc(NC(C)=O)cc(C(=O)N(C)CC3COCCO3)c21 (stereo not given)	-0.2%
CC(C)c1c(C(=O)NCc2ccncc2)cnn1-c1nccc(-c2cccs2)n1	-0.6%
CN(Cc1ccco1)c1ncnc2ccc(-c3cccnc3)cc12	-1.5%
CN1CCN(c2ncc3nc(-c4cc(F)cc(F)c4)c(=O)n(-c4ccccc4)c3n2)CC1	-0.7%
COc1ccc(Oc2ncc3nc(-c4cc(F)cc(F)c4)c(=O)n(C4CC4)c3n2)cc1	6.1%
Cc1cc(C)n(-c2cccc(C(=O)NCC3Cc4cccc(-c5cccnc5)c4O3)c2)n1 (stereo not given)	1.0%
CNc1nc(-c2ccccc2Cl)nc2ccccc12	-0.3%
Cc1cnc(CNc2ncncc2-c2cccc(NS(C)(=O)=O)c2)cn1	0.4%
CCn1c2ccccc2c2cc(CN3CCOc4ccc(C(O)c5cccnc5)cc4C3)ccc21 (stereo not given)	1.3%
Cn1nnnc1Sc1ncnc2scc(-c3ccc(Cl)cc3)c12	-1.9%
COc1cc(-c2c(OC)cccc2OC)cc2c1OCCN(C(=O)CCC(=O)c1ccc(F)cc1)C2	2.8%
CN(C)c1ccc(-c2cncnc2N(C)Cc2ccco2)cc1	-0.3%
COc1ccccc1CN1CC[C@@]2(CCCN(C(=O)c3cccc(F)c3)C2)C1	-0.7%
CCN(CCO)C(=O)c1cnn(-c2ncc3c(n2)-c2ccccc2CCC3)c1C1CC1	0.3%
Nc1ncnc2c1ncn2C1CC(O)C(CO)O1 (stereo not given)	3.3%
Cc1cnc(CNc2ncncc2-c2ccc(N(C)C)cc2)cn1	-0.9%
COc1ccc(OC)c(CN2C[C@H](Sc3ccc(F)cc3)C[C@H]2C(=O)N(C)C)c1	-0.7%
O=c1c(-c2ccc(F)cc2)nc2cnc(N3CCOCC3)nc2n1Cc1ccc(F)cc1	2.3%
Cn1cccc1C(=O)N1CCC2(CCN(C(=O)Nc3cccc(C#N)c3)CC2)CC1	0.6%
Cc1noc(C)c1C(=O)N1CCC[C@@]2(CCN(C(c3ccccc3)c3ccccc3)C2)C1	-1.0%
OCCN1CCN(Cc2ccc3c(c2)CN(Cc2ccc4ccccc4c2)CCO3)CC1	-0.6%

Among those listed so far, 13 contain a furan ring, fused or not:
SMILES	PINK1 modulator
Cc1noc(C)c1-c1ccc2ncnc(N(C)Cc3ccco3)c2c1	0.4%
C#CCN(Cc1nc(N2CCOCC2)c2ccc(Cl)cc2n1)Cc1ccco1	-0.2%
COCCN1CCN(C(=O)c2cnn(-c3nccc(-c4ccccc4F)n3)c2-c2ccco2)CC1	0.1%
C=C1C(C2(C)C=CC(=O)C(C)(C)C2CC(=O)OC)CC[C@@]2(C)C(c3ccoc3)OC(=O)C3OC132 (stereo not given in full)	-1.3%
Cc1cccc(CNc2nc(-c3ccoc3)nc3ccccc23)c1	1.1%
CN(C)C(=O)c1ccc(-c2nccc(N(C)Cc3ccco3)n2)cc1	1.5%
Fc1ccc(Nc2ncncc2-c2ccoc2)cc1	0.1%
Cc1c(S(=O)(=O)O)oc2c1C(=O)C(=O)c1c-2ccc2c1CCCC2(C)C	-0.6%
COc1ccccc1CNc1ncnc2ccc(-c3ccoc3)cc12	-1.2%
c1nc(N2CCOCC2)c2cc(-c3ccoc3)ccc2n1	0.3%
Cc1ncc2c(c1CNC(=O)c1ccc3c(c1)OCO3)CCN(C(=O)c1cc3ccccc3o1)C2	0.2%
CN(Cc1ccco1)c1ncnc2ccc(-c3cccnc3)cc12	-1.5%
CN(C)c1ccc(-c2cncnc2N(C)Cc2ccco2)cc1	-0.3%
